# Env fusion inh = blocks HIV Env-driven cell-cell fusion | HeLa-JRFL Env/CEM21 cell fusion, luciferase | inhibition, % at 12.3 µM | actives 1.1% (n = 360,000);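 active = mean replicate inhibition score of at least 50 and every replicate individually at or above 50; inconclusive = only one of the two criteria met; inactive = mean below 50 and not all replicates reaching 50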;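 also: 0% = plate neutral controls and 100% = maraviroc near 300 nM; one replicate is shown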
# Rce1 inh = yeast Ras-converting enzyme inhibition | yeast membranes, quenched prenylated peptide cleavage fluorescence | calls only | actives 0.27% (n = 290,000);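 active = fall in fluorescence gain of 50% or more versus controls, with final raw signal at or below 3038400; inconclusive = same 50% fall but final raw signal above 3038400; inactive = fall in fluorescence gain under 50%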;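 also: plate controls were neutral control wells for no effect and wells lacking membranes for full effect; tested at 10 µM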
# PABP FP inh = PABP-poly(A) binding inhibition | P11940 | AID 2014 | actives 1% (n = 290,000) | PABP-poly(A) RNA binding, fluorescence polarization | inhibition, % at 35 µM;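 active = 50% or more with normal probe brightness, or confirmed in later tests; inconclusive = above 50% with abnormal brightness, or retests that disagree; inactive = below 50% or failed in later tests; about a fifth of its hits are not listed in these tables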;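 also: calls also rest on retests at 20 µM and on dose response follow-up; controls were probe without protein and protein plus probe with vehicle; some compounds called inactive have numbers as strong as hits; many hits fall short of the cut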
# Target sequence (P11940 whole entry, looked up): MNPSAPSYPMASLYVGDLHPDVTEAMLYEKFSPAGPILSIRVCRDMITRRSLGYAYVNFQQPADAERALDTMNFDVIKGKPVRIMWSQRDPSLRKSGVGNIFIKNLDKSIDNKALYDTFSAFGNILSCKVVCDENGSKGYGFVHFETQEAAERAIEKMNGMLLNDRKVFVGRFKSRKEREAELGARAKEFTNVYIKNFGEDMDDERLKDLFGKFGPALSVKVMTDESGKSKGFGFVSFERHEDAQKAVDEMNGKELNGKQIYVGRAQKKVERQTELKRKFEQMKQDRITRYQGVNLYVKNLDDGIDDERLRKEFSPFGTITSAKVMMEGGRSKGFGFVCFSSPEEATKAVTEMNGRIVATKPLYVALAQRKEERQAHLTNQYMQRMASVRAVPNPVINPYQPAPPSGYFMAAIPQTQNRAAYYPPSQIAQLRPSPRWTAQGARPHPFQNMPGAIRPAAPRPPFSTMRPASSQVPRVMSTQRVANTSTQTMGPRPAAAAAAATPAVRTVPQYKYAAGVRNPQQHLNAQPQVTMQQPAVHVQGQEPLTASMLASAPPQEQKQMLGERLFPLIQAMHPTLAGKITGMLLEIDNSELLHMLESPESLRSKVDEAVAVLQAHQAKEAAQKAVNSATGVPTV
# CSC inhib = cancer stem cell inhibition; actives 1.1% (n = 300,000); inhibition, % at 7.5 µM; cancer stem cell-like cells viability, luminescence;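 active = mean at 75% or more and at least half the replicates too; inconclusive = mean and replicates disagree; tested in HMLE shEcad cells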;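 also: 0% = median of negative and 100% = median of positive control wells; the first replicate is given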
# MT1-MMP act inh = MT1-MMP (human) activation inhibition. AID 651647. actives 0.061% (n = 360,000). GFP/RFP ratio change, % at 20 µM. HT1080 RFP-PRO-GFP cells, GFP/RFP ratio fluorescence, overnight; percent of plate control window, DMSO zero. P50281;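 active = GFP/RFP ratio change of at least 30% with cell ATP level not reduced by more than half and red fluorescence within 50% of control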; also: strong numbers were not always called active
#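 Assay system: HT1080 cells carrying an RFP-PRO-GFP reporter | Dosing: Single dose of 20 µM compound, 1% DMSO final | Incubation: Cells overnight before dosing, compound overnight, 37 °C, 5% CO2 | Evaluation: GFP/RFP fluorescence ratio | Control set: DMSO and RFP-L50D-GFP cell wells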
# eIF4H FP inh = inhibitors of RNA binding by human eIF4H; actives 0.94% (n = 290,000); Q15056; inhibition, % at 35 µM; AID 2012; eIF4H fluorescence polarization binding assay;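 active = 50% or more with normal probe brightness, or confirmed in later tests; inconclusive = above 50% with abnormal brightness, or retests that disagree; inactive = below 50% or failed in later tests; about a fifth of its hits are not listed in these tables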;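 also: calls also rest on retests at 20 µM and on dose response follow-up; 0% = protein and probe with vehicle and 100% = probe without protein; strong numbers were not always called active; many hits fall short of the cut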
# UUG fidelity = alters start codon recognition fidelity in yeast. AID 602363. actives 0.13% (n = 350,000). activity score, % at 18.7 µM. S. cerevisiae UUG-firefly luciferase reporter, luminescence/redox ratio;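 active = replicate mean at a twofold rise or more, about +100% in these data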;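 also: firefly luciferase made from a UUG start codon reports start codon fidelity; reporter light over untreated wells divided by growth signal over untreated wells; some hits fall short of that in this replicate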
# MT1-MMP act inh RFP = further read-out of MT1-MMP act inh, marked with its call; RFP signal change, %; measured here: RFP expression control read;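 0 = vehicle wells; hits needed this value within 50% of zero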
# Numbers without * were called inactive; i = inactive; ? = inconclusive; . = no result given.
SMILES,Env fusion inh,Rce1 inh,PABP FP inh,CSC inhib,MT1-MMP act inh,MT1-MMP act inh RFP,eIF4H FP inh,UUG fidelity
COc1cc(OC)cc(C(=O)NNC(=S)NCc2ccco2)c1,-7,i,-3,-6,0,1,1,-19
COc1cccc(/C=C/C(=O)OCC(=O)c2ccc(Br)cc2)c1,1,.,.,.,2,0,.,-6
CCCCN1CC(COCc2ccccc2)Oc2cccc(NCc3ccc(OC)cc3)c2S1(=O)=O (configuration not stated),34,.,.,.,-2,-7,.,-2
Cc1cc(C)c2nc(-c3ccccc3)ccc2c1,-121,.,.,.,0,0,.,-16
CSCCC1NC(=S)N(Cc2ccccc2)C1=O (configuration not stated),-5,i,5,9,7,6,-4,-18
O=S1(=O)N=C(N2CCN(Cc3ccccc3)CC2)c2ccccc21,.,i,-1,-21,-1,-1,-8,0
CN(O)/C=C/C(=O)c1ccc(Br)cc1,-5,i,-4,-5,-2,4,18,.
CCOC(=O)CCCCC(=O)c1[nH]c(=O)[nH]c1C[n+]1ccccc1,.,i,4,9,.,.,7,.
CCCCN(CC)CCNC(=O)CN1C(=O)COc2ccc(S(=O)(=O)N3CCCC3)cc21,-15,i,44,7,5,8,4,-1
O=C(CNC(=O)c1ccncc1)Nc1ccc(F)c(F)c1,0,i,-3,-6,0,1,-6,-17
Cc1cccc(C)c1NC(=O)CNC(=O)c1c(C)nn(C)c1Cl,-8,i,-6,2,-1,-5,8,-16
CCOC(=O)NC1(Nc2cccc(Cl)c2)Oc2ccccc2O1,17,.,15,24,0,-6,30,.
CC(C)CC(=O)N1CCN(Cc2ccc3ccccc3c2)CC1,-7,i,0,-4,2,-3,12,-25
CCC1CCc2[nH]nc(C(=O)O)c2C1 (configuration not stated),-11,i,1,12,4,6,-11,-26
CC1CN(S(=O)(=O)c2cccc(C(=O)NCc3ccc4c(c3)OCO4)c2)CC(C)O1 (configuration not stated),.,i,-1,0,4,-2,-7,0
N#Cc1ccccc1Sc1ccccc1C(=O)OCC(N)=O,-11,i,-4,4,1,5,20,.
CCOC(=O)N1CCN(c2ncnc3c2cnn3-c2ccc(OC)cc2)CC1,.,i,-3,.,7,1,-7,-29
CC(=O)c1ccc(NC(=O)NC2CC(=O)N(c3ccc4c(c3)OCCO4)C2)cc1 (configuration not stated),.,i,.,-2,4,1,.,.
NC(=O)c1ccc(/C=N/O)[n+](Cc2ccccc2)c1,13,i,-4,-5,-1,-1,-3,-7
Cc1cc(/C=C(\C#N)C(=O)NCc2cccs2)c(C)n1-c1ccccc1F,-175,i,-6,39,-1,-6,48,1
Cc1ccc(C2(C)NC(=O)N(CC(=O)Nc3nc(-c4ccccn4)cs3)C2=O)cc1 (configuration not stated),4,i,.,-11,0,-2,.,-11
CCCCSc1nnc(-c2ccc(OC)cc2)n1C,-245,i,-6,0,0,3,0,-19
CC(=O)N1N=C(c2cccc(Cl)c2)OC1c1cccc([N+](=O)[O-])c1 (configuration not stated),15,i,28,6,1,0,-10,.
NC(=O)c1cccc(-c2cnc3c(Nc4cccc(OC(F)(F)C(F)F)c4)nccn23)c1,18,.,.,.,14,-17,.,-11
COc1ccc(N2CCN(CCCNC(=O)Nc3ccccc3)CC2)cc1,3,i,11,0,4,9,6,-16

# (further entries)
SMILES,Env fusion inh,Rce1 inh,PABP FP inh,CSC inhib,MT1-MMP act inh,MT1-MMP act inh RFP,eIF4H FP inh,UUG fidelity
O=C(CNC(=O)C1CCCCC1)Nc1ccc(Cl)cc1,0,i,3,-10,-2,2,-6,-9
Nc1nc(NCCO)nc(NCc2ccccc2)c1[N+](=O)[O-],.,i,2,.,-6,-4,3,-15
NC(=O)CC1C(=O)N(c2ccccc2)C(=S)N1NC(=O)c1ccc(Br)cc1 (configuration not stated),-15,i,-6,4,5,2,-2,-5
O=c1c(-c2ccc(O)cc2)coc2cc(O)cc(O)c12,.,i,11,-6,-2,-1,-6,-31
CCOC(=O)C1=C(C)N=C(SC)N(C)C1c1ccccc1 (configuration not stated),31,i,-5,13,-3,0,-2,-18
COc1ccc(NC(=O)c2cccc3ccccc23)cc1,-30,.,9,29,2,-2,5,2
CNC(=O)c1[nH]cnc1C(=O)Nc1ccc(OC)cc1,15,i,3,-4,1,-2,-4,-6
CCCC[C@@H](CNC)NC[C@H](Cc1ccc(O)cc1)NCCc1ccc(OCC)cc1,-41,i,2,29,8,0,-4,-18
COc1cccc(C2CC(c3ccc(C(C)C)cc3)n3nc(N)nc3N2)c1 (configuration not stated),-37,i,-6,-19,7,3,-7,-19
CCOC(=O)N1CCN(C(=S)NC(=O)C23CC4CC(CC(C4)C2)C3)CC1,4,i,0,-4,-1,1,-1,.
Cc1occc1-c1nnc(SCC(=O)N2CCOCC2)o1,-12,i,-13,-12,3,6,-3,-17
CCOc1ccc(CCNC(=O)c2nn(C)c3c2CS(=O)(=O)c2ccccc2-3)cc1OCC,-4,i,.,0,4,0,.,2
CC1CCCN(C(=O)c2nn(C)c3c2CS(=O)(=O)c2ccccc2-3)C1 (configuration not stated),-4,i,9,12,.,.,2,-13
Clc1ccc(-c2cn3ccccc3n2)cc1,-249,i,4,7,3,0,-8,-26
COc1ccc(NC(=O)CN(C)CC(=O)Nc2sc3c(c2C#N)CCC3)cc1,12,.,.,.,-2,1,.,-8
COc1ccc(/C=N/NC(=O)C(Cc2c[nH]c3ccccc23)NC(=O)OCC(C)C)cc1[N+](=O)[O-] (configuration not stated),-22,i,18,-7,6,-1,3,-6
COc1cccc(CNC(=O)c2cccc(NC(=O)C3=C(C)OCCS3)c2)c1,10,i,8,-8,-2,-5,-10,6
CCOc1ccc(OCC(=O)Nc2ccccc2C(F)(F)F)cc1,4,i,-6,-5,7,0,-10,-9
O=C(CNC(=O)c1ccco1)Nc1ccc(N2CCCCCC2)cc1,-9,.,.,-6,3,4,.,-20
Cc1cccc(CCNC(=O)CNS(=O)(=O)c2ccc3nc(C)sc3c2)c1,3,i,-1,-1,-4,-1,3,-21
CN(C(=O)/C=C/c1ccc(F)cc1)C1CCCCC1,-59,i,.,-6,2,-1,.,-33
c1ccc2c(c1)[nH]c1c(N3CCN(C4CCCCC4)CC3)ncnc12,-34,i,.,-6,3,-5,.,-9
COc1ccc(C2/C(=C(\O)c3ccc4c(c3)OCCO4)C(=O)C(=O)N2Cc2cccnc2)cc1 (configuration not stated),4,i,.,-11,-9,4,.,-19
Cc1nn(-c2ccccc2)c(C)c1C(=O)NCCc1ccc(Cl)cc1,0,i,-2,-12,0,-2,-14,-15
CCN(CC)CC(=O)Nc1ccc2c(c1)N(C(=O)CN(CC)CC)c1ccccc1CC2,.,i,26,-2,-3,-1,6,-7

# (list continues)
SMILES,Env fusion inh,Rce1 inh,PABP FP inh,CSC inhib,MT1-MMP act inh,MT1-MMP act inh RFP,eIF4H FP inh,UUG fidelity
Cc1cc(C(F)F)n2ncc(C(=O)NC3CCCCCC3)c2n1,.,i,2,-10,1,-5,-10,-20
COC(=O)CN1C(=O)[C@H]2[C@@H](/C=C/c3ccccc3)N3C(=O)CN(Cc4ccccc4)C(=O)[C@@]3(C)[C@H]2C1=O,-29,i,5,-25,2,3,1,-8
Cc1cc(NC(=O)CSc2cn(CCNC(=O)c3ccc(Cl)cc3)c3ccccc23)no1,33,i,-21,2,1,-10,-4,16
COc1ccccc1C(=O)Nc1ccc(S(=O)(=O)N2CCCCC2c2cccnc2)cc1 (configuration not stated),-25,i,-5,12,0,-3,-9,.
c1ccc2cc(OCCCn3ccnc3)ccc2c1,-6,i,3,-14,5,0,10,-13
Oc1c(CN2CCCCC2)cc(Br)c2cccnc12,.,i,?,33,-21,-5,?,-29
Cc1cc(SCC(=O)NC(=O)NCc2ccco2)nc2ccccc12,-160,i,13,-8,-2,0,-6,-12
O=c1oc2c(-c3ccc([N+](=O)[O-])cc3)cc(O)cc2s1,5,i,-1,38,5,-8,-5,-24
CCOc1ccc(C2CC(=O)c3c([nH]c(C(=O)OC)c3C)C2)cc1OC (configuration not stated),.,i,0,2,2,0,-8,-5
COc1cc(N(C(C)=O)c2ccc(O)cc2)c2ncccc2c1,3,.,.,.,2,3,.,6
CN(C)c1cccc(C(=O)OCC(=O)Nc2ccccc2Sc2ccccc2)c1,6,i,-14,5,0,1,-5,.
CC(C)CC(C(=O)N1CCOCC1)N1Cc2ccccc2C1=O (configuration not stated),-1,i,-4,7,-3,3,28,.
COc1ccc(OC(C)C(=O)NC(C)c2ccccc2)cc1 (configuration not stated),-4,i,1,-1,-12,-4,9,-19
COCCCNC(=S)Nc1ccccc1[N+](=O)[O-],8,i,10,-15,4,12,-1,0
CC(C)c1ccc(NC2CCCN(C(=O)c3ccnn3C)C2)cc1 (configuration not stated),2,i,-7,-3,3,0,-11,-7
CCC(CC)c1nnc(NC(=O)COc2ccc3c(c2)OCO3)s1,-6,.,8,26,3,1,4,3
CC(O)CN=c1cc(-c2ccccc2)oc2ccc(Cl)cc12 (configuration not stated),.,i,10,12,7,9,-13,-8
Cc1ccc(S(=O)(=O)NCCC(=O)NNC(=O)COc2ccc(Br)cc2)cc1C,3,.,.,.,2,0,.,-14
COc1ccc(N(CC(=O)NCCSCc2ccco2)S(=O)(=O)c2ccccc2)cc1Cl,.,i,0,12,-2,-1,2,-11
Fc1cccc(F)c1/C=N/Nc1ccccn1,-11,i,6,-6,-2,1,-5,.
CC(NC(=O)CCc1nnc(C2(c3ccc(Cl)cc3)CCC2)o1)C1CC1 (configuration not stated),-11,i,-6,-9,2,2,2,.
C#CC1CN(Cc2ccccc2)CC(C#C)N1C (configuration not stated),-17,i,2,-3,1,3,-6,.
CC(C(=O)N1CCN(Cc2ccc3c(c2)OCO3)CC1)c1ccc([N+](=O)[O-])cc1 (configuration not stated),15,i,-19,16,-3,0,-11,.
NC(=S)Nc1cccc(F)c1,-7,i,-2,-10,-2,-5,-7,-16
O=C(Cc1ccc(Cl)cc1)NNC(=O)c1ccco1,7,.,-4,-7,-2,1,0,-18

# Later entries:
SMILES,Env fusion inh,Rce1 inh,PABP FP inh,CSC inhib,MT1-MMP act inh,MT1-MMP act inh RFP,eIF4H FP inh,UUG fidelity
CCOC(=O)NC(=O)/C(C#N)=N\Nc1ccc(Cl)cc1,.,i,6,-7,9,0,2,.
CSc1nc2ncc(C#N)cn2n1,5,i,-10,-3,0,4,12,-11
O=c1cc(-c2ccccc2)oc2cc(OCc3ccccc3)cc(O)c12,-8,i,-4,-3,3,2,-12,1
COc1ccc(CNC(=O)CCCn2nc(C)c3c(C)n(-c4ccccc4)nc3c2=O)cc1,-7,i,6,0,5,4,-9,6
CC(O)(P(=O)(O)O)P(=O)(O)O,-12,.,.,.,4,5,.,-8
COc1cc(NC(=O)CN2CCC(C(N)=O)(N3CCCCC3)CC2)c(OC)cc1Cl,9,i,4,-17,0,-7,-11,.
CCNC(=O)C1(C)CCCN(C(=O)c2cc(OC)ccc2Br)C1 (configuration not stated),4,.,.,.,-4,2,.,-16

# From PubChem

# The list is partial, so the mix of outcomes need not match the whole.
